Compound activity (PubChem)
Cruzain noTriton: qHTS Assay for Promiscuous and Specific Inhibitors of Cruzain (without detergent) | Cruzipain (Trypanosoma cruzi), P25779 | purified cruzain, Z-FR-AMC fluorescence, no detergent | AID 1476, 2009 | Potency, µM, for the others: max response, negative = inhibition, hits mostly inhibitors | 200,000 tested, 2.3% active; active = well fitted curve in the direction sought with a large enough effect; inconclusive = small, poorly fitted or top-dose-only effect, or another doubt; inactive = no such curve, though single readings can be large; an effect the other way counts as inactive or inconclusive;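 note: plate controls were enzyme without inhibitor for no effect and buffer without enzyme for full effect; nearly all actives have a fitted effect of over 40% in size; top concentration of the series not given in the record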
Target sequence (P25779 123-467 limits assumed): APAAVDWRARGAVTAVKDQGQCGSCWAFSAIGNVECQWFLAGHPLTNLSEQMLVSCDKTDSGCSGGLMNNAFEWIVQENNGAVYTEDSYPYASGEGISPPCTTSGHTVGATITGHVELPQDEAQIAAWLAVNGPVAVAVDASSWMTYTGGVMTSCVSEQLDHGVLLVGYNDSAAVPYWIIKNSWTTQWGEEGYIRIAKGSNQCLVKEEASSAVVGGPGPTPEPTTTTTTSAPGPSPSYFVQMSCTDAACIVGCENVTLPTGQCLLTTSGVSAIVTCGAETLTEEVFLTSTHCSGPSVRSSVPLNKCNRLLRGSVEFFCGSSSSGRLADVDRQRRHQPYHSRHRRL
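Purified cruzain at 1.5 nM, pre-incubated 15 min with compound at room temperature in 100 mM sodium acetate pH 5.5, 5 mM DTT, 0.00005% Triton X-100. Reaction started with 2 uM Z-FR-AMC; AMC fluorescence increase over 60 s gives rate.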
Cruzain inh Det: qHTS Assay for Promiscuous and Specific Inhibitors of Cruzain (with detergent). Cruzipain (Trypanosoma cruzi), P25779. purified cruzain, Z-FR-AMC fluorescence, 0.01% Triton. Potency, µM, for the others: max response, negative = inhibition, hits mostly inhibitors. 200,000 tested, 0.43% active; active = well fitted curve in the direction sought with a large enough effect; inconclusive = small, poorly fitted or top-dose-only effect, or another doubt; inactive = no such curve, though single readings can be large; an effect the other way counts as inactive or inconclusive;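 note: plate controls were neutral wells for no effect and buffer without enzyme for full effect; nearly all actives have a fitted effect of over 40% in size; top concentration of the series not given in the record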
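Enzyme 1.5 nM, Z-FR-AMC 2 uM, NaOAc 100 mM pH 5.5, DTT 5 mM, Triton X-100 0.01%; 15 min RT compound preincubation; kinetic ex360/em450, 60 s delta.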
NS1 inh: qHTS Assay for Inhibitors of Influenza NS1 Protein Function; S. cerevisiae slowed by influenza A NS1, growth recovery by OD600; Potency, µM (top dose mostly 46.1 µM), without a hit: top-dose activity, positive = more growth; 270,000 tested, 0.4% active; AID 2326, 2010; note: actives are rising curves; nearly all actives have a fitted effect of over 50% in size
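Read-out: OD600 growth recovery of NS1-expressing budding yeast. Cells grown overnight at 30C in -URA glucose medium, washed, resuspended and diluted 1:100 in 2% galactose assay medium, pH 6.0. Same strain lacking NS1 served as positive control.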
2A StopGo: High Throughput Screening for Foot and Mouth Disease Virus Antivirals; human cells with a luciferase reporter of 2A StopGo recoding; control for the full effect not named in the record; Potency, µM (top dose mostly 57.9 µM), inactives show at the highest dose signal change, negative = less light; 410,000 tested, 1.2% active; active = well fitted falling curve with a large enough effect; inconclusive = small, poorly fitted or top-dose-only effect; inactive = no such curve, though single readings can be large or run the other way; tested in HEK293T cells; note: % is set by controls: 0 for no effect and ±100 for the full control effect; nearly all actives have a fitted effect of over 45% in size; luciferase light after 4 h
SARS PLP yeast: qHTS of Yeast-based Assay for SARS-CoV PLP | S. cerevisiae expressing SARS-CoV PLpro, growth rescue; control for the full effect not named in the record | Potency, µM (doses to about 32.9 µM), without a hit: at the top dose activity, positive = growth rescue | 330,000 tested, 0.19% active; note: 0% is about no effect; nearly all actives have a fitted effect of over 55% in size; growth read by luminescence after 48 h
Marburg entry inh: qHTS for inhibitors of binding or entry into cells for Marburg Virus | Marburg virus pseudotyped entry inhibition, cell reporter; control for the full effect not named in the record; about a third of the inactives were read at about 46 µM | Potency, µM (titrated, usually from 37.8 µM), without a hit: at the highest dose activity change, negative = inhibition, most hits filed as inhibitors | 300,000 tested, 1.8% active; active = well fitted inhibition curve with a large enough effect; inconclusive = small, poorly fitted or top-dose-only effect, or effect the other way; inactive = flat fitted curve, though single readings scatter; tested in HEK293 cells; about a fifth of its hits are not listed in these tables; note: % is set by controls: 0 for no effect and ±100 for the full control effect; luciferase read-out
Lassa entry inh: qHTS for Inhibitors of binding or entry into cells for Lassa Virus. Potency, µM (highest dose often 37.9 µM), for the others: top-dose activity change, negative = inhibition, hits mostly inhibitors. Lassa virus pseudotype entry inhibition, cell reporter; control for the full effect not named in the record. 300,000 tested, 1.2% active. AID 540256, 2011; active means well fitted inhibition curve with a large enough effect; inconclusive means small, poorly fitted or top-dose-only effect, or effect the other way; inactive means flat fitted curve, though single readings scatter; tested in HEK293 cells; note: % is set by controls: 0 for no effect and ±100 for the full control effect; nearly all actives have a fitted effect of over 50% in size; luciferase read-out
RE007 growth inh: qHTS Assay for Inhibitors of the HIV-1 protein Vpr. S. pombe RE007 Vpr strain, BacTiter-Glo ATP luminescence, 24 h; control for the full effect not named in the record. Potency, µM (top dose mostly 92.2 µM), for inactives: at the highest dose activity change, negative = less growth. 360,000 tested, 0.21% active. AID 651644, 2012; active = well fitted falling curve with a large enough effect; inconclusive = small, poorly fitted or top-dose-only effect; inactive = no such curve, though single readings can be large or run the other way;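 note: % is set by controls: 0 for no effect and ±100 for the full control effect; nearly all actives have a fitted effect of over 50% in size; the assay follows cell death caused by Vpr and the record does not say whether a fall means rescue or toxicity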
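Fission yeast RE007 carrying one integrated HIV-1 vpr copy, seeded at OD 0.01 in PMG+AL medium with 23 nL pinned compound. Grown 24 h at 30 degrees; viability read by BacTiter-Glo luminescence after 5 min.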
Numbers without * were called inactive; ? = inconclusive; . = not tested or not shown; [ ] = another dose, or the depositor's remark. Unless noted, calls come from the whole dose curve; as a rule, active means well fitted rising curve with a large enough effect; inconclusive means small, poorly fitted or top-dose-only effect; inactive means no such curve, though single readings can be large or run the other way. Potency is the fitted concentration of half-maximal effect. Rows are unselected; any-hit rate near 4.8%.

SMILES | Cruzain noTriton | Cruzain inh Det | NS1 inh | 2A StopGo | SARS PLP yeast | Marburg entry inh | Lassa entry inh | RE007 growth inh
O=[N+]([O-])c1cccc(NC(=S)N2CCN(c3ccccn3)CC2)c1 | . | . | -15% | -3% | 6% | ? | ? | -16%
O=C(N/N=C\c1c[nH]c2ccccc12)c1ccc(O)cc1 | . | . | 1% | 1% | -2% | ? | 29%[46.1 µM] | 23%
COC(=O)C(C)Sc1ncnc2c1c(-c1ccccc1)cn2-c1ccc(F)cc1 (stereo not drawn) | ? | -4.7% | . | 0% | . | ? | -20%[46.1 µM] | .
O=C(CNC(=O)c1ccc(Br)cc1)Nc1ccc2c(c1)CCC2 | . | . | . | 4% | 5% | 16% | 28% | -17%
Cc1ccc(C(C)C)c(OCCCn2ccnc2C)c1 | . | . | 1% | -25% | 0% | ? | -25% | 5%
Cc1cc(C)cc(NC(=O)CSc2nnc(COc3ccccc3Cl)o2)c1 | 10% | -7.3% | . | 12% | . | -18%[46.1 µM] | -3%[46.1 µM] | .
Cc1cc(C)c2c3c(sc2n1)C(=O)N(c1ccccc1)CC(=O)N3 | . | . | -3% | -8% | 0% | 1%[46.1 µM] | -1%[46.1 µM] | 1%
CN(C)c1ccnc2sc3c(=O)n(-c4ccccc4)cnc3c12 | -10% | -1.7% | -2% | 1% | -7% | ? | ? | 16%
O=C1CC(c2ccccc2)CC(=O)C1Sc1ccc(Cl)cc1 (stereo not drawn) | -17% | -4.4% | -28% | 8% | ? | -6% | -3% | 6%
CCn1c(SCc2ccc(C#N)cc2)nnc1-c1cccc(Cl)c1 | -15% | -0.7% | -8% | . | -6% | -22% | -21% | 12%
COc1ccc(CCC(=O)NCCCNC(=O)CCc2ccc(OC)cc2)cc1 | -1% | -3.4% | -1% | -8% | ? | ? | -8% | 11%
COc1ccc(CCNC(=O)N[C@@H](Cc2ccccc2)C(=O)O)cc1 | . | . | -1% | -5% | 1% | . | . | 5%
Cc1ccc(S(=O)(=O)Oc2ccc(/C=C3\C(=N)N4N=C(S(C)(=O)=O)SC4=NC3=O)cc2)cc1 | . | . | 7% | -12% | 8% | . | . | -11%
C=CCn1c(SCc2n[nH]c(=S)n2-c2ccccc2)nnc1-c1ccccc1 | . | . | -1% | -10% | 0% | . | . | 20%
CCc1ccc(C(=O)/C=C2\Sc3ccccc3NC2=O)cc1 | -3% | -6.7% | 22% | 18% | -23% | 26% | -12% | 11%
Cn1c(SCCC#N)nnc1-c1ccccc1F | . | . | . | -12% | -2% | 0% | 13% | -2%
O=C(CC1CCCCC1)Nc1c2c(nn1-c1ccc(F)cc1)CS(=O)(=O)C2 | 8% | 0.4% | -16% | 0% | -4% | ? | 0% | 11%
O=C(COc1ccc([N+](=O)[O-])cc1)NNC(=S)NC(=O)c1ccc(Br)cc1 | . | . | . | -18% | -4% | 20%[46.1 µM] | 1% | 28%
O=C(NCc1ccccc1)C1CCN(C(=O)NCc2ccccc2)CC1 | 4% | 0.1% | 0% | 20% | -5% | 7% | -4% | -10%
Cc1cc(C)c(C(=O)c2ccc(C(=O)NC(C)(C)C)cc2)c(C)c1 | 0% | -0.7% | -59% | -13% | -2% | -16% | -3% | 14%
CCn1cc(C(=O)Nc2ccccc2C(=O)OC)c(=O)c2ccc(C)nc21 | 9% | -0.3% | -8% | . | -4% | 1% | . | .
COc1ccc(/C=N/NC(=O)c2[nH]c3ccc(Br)cc3c2-c2ccccc2)c(C(=O)O)c1OC | . | . | 8% | -16% | -1% | -24%[46.1 µM] | -27% | -4%
CCOC(=O)N1CCN(C(=O)CCN2C(=O)/C(=C\c3cccc(OC)c3)SC2=S)CC1 | . | . | 6% | 12% | -1% | 3%[46.1 µM] | 1%[46.1 µM] | 1%
NC(=S)Nc1nc2ccccc2[nH]c1=O | ? | 7.9µM* | 1% | . | 10% | 2% | . | .
COc1cccc(CNC(=O)CCC2CCCN(C(=O)CCn3cncn3)C2)c1 (stereo not drawn) | . | . | -7% | 10% | 1% | -14%[46.1 µM] | -4% | 25%
CCCCC(=O)Nc1ncc([N+](=O)[O-])s1 | . | . | -45% | -14% | -1% | -6%[46.1 µM] | ? | -9%
CCN(CC)S(=O)(=O)c1cccc(S(=O)(=O)c2cccc(S(=O)(=O)N(CC)CC)c2)c1 | 18% | 5.0% | ? | -4% | 0% | ? | ? | 1%
O=C(NCC1CCCO1)C(c1ccc(F)cc1)N(Cc1ccc2c(c1)OCO2)C(=O)c1ccc(CN2CCOCC2)o1 (stereo not drawn) | . | . | -1% | -6% | 0% | 2% | -12%[46.1 µM] | -2%
O=c1ccn(-c2cccc(C(F)(F)F)c2)nc1-c1ccn(-c2ccccc2)n1 | 22% | -0.8% | 5% | -9% | -2% | -6% | -19% | 0%
COc1cc(OC)cc(C(=O)N[C@H](C(=O)NCc2ccccc2)C(C)C)c1 | . | . | 4% | -1% | 3% | -19%[46.1 µM] | -17%[46.1 µM] | -1%
CCOc1ccc(Nc2ncnc3scc(-c4ccc(OC)cc4)c23)cc1 | 0% | -0.4% | . | ? | . | . | 0%[46.1 µM] | .
C=CCN1c2ccccc2[C@]23C[C@@H](C(=O)OC)N(C(=O)CC(C)C)C2=NC(C(=O)OC)=C(C(=O)OC)[C@H]13 | . | . | 8% | -3% | -6% | ? | . | -3%
O=C(COC(=O)c1cc(=O)[nH]c2ccccc12)Nc1cccc(S(=O)(=O)N2CCOCC2)c1 | . | . | -41% | -17% | 0% | . | . | -7%
CCC(=O)N1CCc2cc(S(=O)(=O)CCC(=O)NCCc3ccc(OC)c(OC)c3)ccc21 | 5% | 3.5% | -9% | 2% | 2% | 1% | 2% | 9%
CCN(CC)c1ccc(/C=N/NC(=O)OC(C)(C)C)cc1 | . | . | -7% | 30%[activator] | 4% | 20%[14.2 µM] | ? | 5%
CCN(CC)S(=O)(=O)c1ccc2c(c1)oc(=O)n2CC(=O)NC1CCCCC1 | . | . | 5% | 5% | -2% | . | . | -6%
CCOC(=O)C(C)Sc1nc2c(cnn2-c2ccc(C)cc2)c(=O)[nH]1 (stereo not drawn) | ? | -1.3% | -2% | -12% | 4% | ? | -14% | -3%
Cc1ccc(C(=O)Nc2nnc(S(=O)(=O)N3CCc4ccccc43)s2)cc1 | 5% | -0.8% | . | -7% | . | . | 4%[46.1 µM] | .
CC(=O)N1c2ccc(S(=O)(=O)N3CCC(C(=O)NCc4ccc(Cl)cc4)CC3)cc2CC1C (stereo not drawn) | . | . | -6% | -30% | 1% | -6%[46.1 µM] | ? | 7%
CCC(CC)C(=O)N1N=C(c2ccc(NS(C)(=O)=O)cc2)CC1c1ccc(C)cc1 (stereo not drawn) | . | . | 11% | 0% | -1% | . | . | 7%
COc1ccc(CC(=O)N2CCC(Nc3nc4ccccc4n3Cc3ccc(F)cc3)CC2)cc1 | 4% | -12% | -2% | ? | -17% | -4% | 1% | 10%
CN(C)c1ccc(-c2nnn(CC(=O)Nc3ccccc3N3CCOCC3)n2)cc1 | -12% | -16% | -33% | . | 2% | ? | ? | 11%
Cc1cccc(N2C(=O)N3[C@H](c4ccc(Cl)cc4)[C@@H]4C(=O)N(C5CCCCC5)C(=O)[C@@H]4[C@]3(Cc3ccc(Cl)cc3)C2=O)c1 | . | . | 3% | -9% | -4% | . | . | 9%
Cc1c(-c2ccc(Br)cc2)[n+](=O)c2c(n1[O-])CCCCC2 | . | . | 2% | -2% | 1% | -5% | ? | -7%
CCCCOc1ccc(C(=O)N2CCN(CCc3ccccn3)CC2)cc1 | 1% | -1.5% | . | 2% | . | -1%[46.1 µM] | -12%[46.1 µM] | .
Cc1cccc(N(C)C(=O)C(Cc2ccccc2)NS(=O)(=O)c2cccc3nsnc23)c1 (stereo not drawn) | -2% | -8.1% | . | 34%[activator] | . | -27%[46.1 µM] | -23%[46.1 µM] | .
NC(=O)Cc1ccc(C(=O)c2ccc(F)cc2)s1 | . | . | . | 11% | -1% | 17%[46.1 µM] | 20%[46.1 µM] | 8%
COc1ccc(CC(=O)Nc2ccccc2N2CCOCC2)cc1OC | . | . | 4% | -20% | 1% | 2%[46.1 µM] | ? | -6%
CCn1c(SCC(=O)N2CCC(C)CC2)nc2c(c1=O)SCC2 | . | . | 2µM* | -10% | 7% | 2%[46.1 µM] | ? | 14%
Cc1cccc2sc(NC(=O)[C@@H]3CCCN3C(=O)c3cccs3)nc12 | -13% | -4.5% | 13% | -25% | -19% | ? | 1% | 0%
CN(C)S(=O)(=O)c1cccc(NC(=S)Nc2ccc3cn[nH]c3c2)c1 | . | . | . | -2% | -4% | -6%[46.1 µM] | 6% | 1%
O=C(COC(=O)c1cncc(Br)c1)Nc1nc(-c2ccc(F)cc2)cs1 | . | . | 2% | 14% | 1% | 16%[46.1 µM] | -2% | -15%
Cc1ccc(S(=O)(=O)NCCN2CCNC2=O)cc1 | . | . | 1% | -6% | 1% | . | . | 0%
Cc1ccc(NC(=O)CN2C(=O)S/C(=C\C(=O)Nc3ccc(Cl)cc3)C2=O)cc1 | 10µM* | 0.1% | -1% | -4% | -1% | 6% | -1% | 18%
COC(=O)c1sc(C(F)(F)F)c(-c2ccccc2)c1S(=O)(=O)N1CCCC1 | . | . | 3% | ? | 0% | -3% | 12% | -4%
CCOc1ccccc1NC(=O)CSc1nnc(CNC(=O)c2cccs2)o1 | . | . | 9% | -5% | -2% | -1%[46.1 µM] | 4%[46.1 µM] | 2%
CC(=O)c1ccc(NC(=O)CN2CCC(C(=O)c3ccc4c(c3)OCCO4)CC2)cc1 | . | . | -28% | -14% | 2% | 0%[46.1 µM] | 15% | -8%
Cn1c(SCC(=O)N2CCOCC2)nc2sc3c(c2c1=O)CCCC3 | ? | -7.8% | -37% | -11% | 1% | -1% | 29% | 14%
Cc1cc(C)n2nc(C(=O)NCc3ccco3)cc2n1 | . | . | . | 14% | 0% | -13%[46.1 µM] | -4%[46.1 µM] | 21%
